FGF22 binding: binders of human FGF22 protein, primary screen, FGF22 synaptogenesis inhibitor project, biophysical, thermal shift, single point. recombinant FGF22 thermal shift, SYPRO orange fluorescence; percent of sucrose octasulfate shift, DMSO zero. calls only at 9.99 µM. 340,000 compounds, 1.5% hits. AID 651658, 2012;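 active = melting point raised past a set limit in the mean and every replicate; three in four hits are not shown here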
Ecoli growth: E. coli growth inhibition, primary screen, OD600; OD600 absorbance (concentration not given with the values); 330,000 compounds, 0.21% hits; AID 1053175, 2014; Escherichia coli growth, 23 h; hits give low values;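 active = OD600 absorbance below the run mean of sample wells minus 3.6 SD, in any replicate, cut at about 0.56 in these data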;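 also: stock transfer was 300 nL into about 60 µL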
ALR inh: inhibitors of human ALR sulfhydryl oxidase, primary screen, biochemical, H2O2 detection, HRP-luminol luminescence, single point; 290,000 compounds, 3.8% hits; FAD-linked sulfhydryl oxidase ALR (Homo sapiens), P55789; purified ALR, DTT oxidation; inhibition, % (concentration not given with the values);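 active = mean and each replicate at 75% or more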;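 also: stock transfer was 7.5 nL into about 7.5 µL; 0% = neutral wells and 100% = wells with inactivated enzyme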
Target sequence (P55789 whole entry, looked up): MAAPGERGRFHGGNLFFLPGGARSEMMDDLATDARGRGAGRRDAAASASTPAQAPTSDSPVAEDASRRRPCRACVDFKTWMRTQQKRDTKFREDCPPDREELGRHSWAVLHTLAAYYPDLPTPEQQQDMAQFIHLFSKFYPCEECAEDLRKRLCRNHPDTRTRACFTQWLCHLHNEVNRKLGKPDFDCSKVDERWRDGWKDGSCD
Beta2AR agonist: beta2AR agonists driving receptor internalization, primary screen, cell-based, FAP fluorogen, flow cytometry | Beta-2 adrenergic receptor (Homo sapiens), P07550 | Am2.2-beta2AR cells; reference of the scale not given here | response, % (no concentration beside the values) | 340,000 compounds, 0.43% hits;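 active = response above a set limit, near 3 SD of response in nonfluorescent compounds, cut at about 42% in these data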;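 also: stock transfer was 100 nL into about 11 µL; a reference agonist was the positive control; negative values mostly stem from fluorescent compounds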
Target sequence (P07550 whole entry, looked up): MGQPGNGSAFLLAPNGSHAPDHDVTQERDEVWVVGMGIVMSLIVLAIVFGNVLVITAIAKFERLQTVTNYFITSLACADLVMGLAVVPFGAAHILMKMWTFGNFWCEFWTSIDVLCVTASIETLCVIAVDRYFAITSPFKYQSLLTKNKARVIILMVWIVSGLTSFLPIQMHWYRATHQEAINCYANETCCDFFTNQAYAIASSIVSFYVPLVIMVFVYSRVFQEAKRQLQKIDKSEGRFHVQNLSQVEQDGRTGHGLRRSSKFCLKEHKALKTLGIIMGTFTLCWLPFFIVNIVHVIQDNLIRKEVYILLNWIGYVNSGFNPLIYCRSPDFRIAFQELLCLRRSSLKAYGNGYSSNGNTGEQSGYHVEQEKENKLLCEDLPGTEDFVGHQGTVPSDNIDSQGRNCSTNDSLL
rRNA inh HTS: reduced GFP signal of wild-type E. coli, primary screen, bacterial rRNA inhibitor project, GFP/RFP fluorescence, OD600, single point; E. coli WT GFP vs humanized-ribosome RFP mutants, 24 h; hits give low values; DMSO median 0, no signal -100; GFP signal change (wild-type ribosome), % (test concentration not listed); 350,000 compounds, 1.6% hits;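 active = significant combined selectivity score with lowered wild-type GFP, culture density cut under 30%, mutant RFP and density less affected; inactive = any of these conditions unmet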; also: one replicate is shown; some compounds called inactive have numbers as strong as hits
UCH37 inh: inhibitors of human UCH37 deubiquitinase, primary screen, biochemical, Ub-AMC cleavage, fluorescence; Ubiquitin carboxyl-terminal hydrolase isozyme L5 (Homo sapiens), Q9Y5K5; purified proteasome/UCH37; inhibition, % (test concentration not listed); 330,000 compounds, 0.33% hits;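 active = mean of two replicates above 20%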;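 also: 0% = compound-free wells with enzyme and 100% = wells lacking proteasome; stock transfer was 100 nL into about 20 µL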
Target sequence (Q9Y5K5 whole entry, looked up): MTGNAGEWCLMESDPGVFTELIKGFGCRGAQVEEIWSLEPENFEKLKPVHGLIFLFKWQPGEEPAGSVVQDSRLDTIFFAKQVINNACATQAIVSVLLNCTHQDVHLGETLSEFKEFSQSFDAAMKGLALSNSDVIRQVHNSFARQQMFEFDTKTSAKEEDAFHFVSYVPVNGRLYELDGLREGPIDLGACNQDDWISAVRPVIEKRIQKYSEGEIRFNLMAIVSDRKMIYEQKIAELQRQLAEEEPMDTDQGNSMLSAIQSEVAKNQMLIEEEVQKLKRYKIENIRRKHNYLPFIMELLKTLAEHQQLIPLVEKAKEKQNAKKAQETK
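Material: human UCH37 enzyme supplied as purified proteasome complex. Measure: % inhibition of Ub-AMC cleavage fluorescence. Medium: pH 7.4 Tris-HCl (50 mM) with ovalbumin, ATP-MgCl2, DTT. Times: 30 min preincubation with enzyme, 25 min cleavage at room temperature. Detection: AMC fluorescence intensity at 355/460 nm.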
HNF4A DNA FP: change in binding of human HNF4A to DNA, primary screen, biochemical, fluorescence polarization, FITC-DNA | Hepatocyte nuclear factor 4-alpha (Homo sapiens), P41235 | 1 h | activity change, % at 10 µM | 360,000 compounds, 0.3% hits; in the data active = activity change above about 30%, passing the limit was not always enough;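 also: controls were the assay level and a saturating level of protein; the project sought stronger binding though the title names inhibitors; some compounds called inactive have numbers as strong as hits; positive values seem to mean higher polarization but the record does not say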
rRNA inh HTS OD600: further read-out of rRNA inh HTS, marked with its call; OD600 change, %; measured here: OD600 growth;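 optical density of the mix in the first replicate; 0 = DMSO median and -100 = no signal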
rRNA inh HTS RFP: second read-out of rRNA inh HTS, no call of its own (marks repeat the call); RFP signal change, %; measured here: RFP humanized mutant strains;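 first replicate; 0 = DMSO median and -100 = no signal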
Numbers without * were called inactive; i = inactive; x = no result given; & = joins results of further samples.

Below each compound: Ecoli growth	rRNA inh HTS OD600	UCH37 inh	HNF4A DNA FP	rRNA inh HTS RFP	FGF22 binding	ALR inh	rRNA inh HTS	Beta2AR agonist
- COc1cc2ccccc2cc1C(=O)NC(=S)Nc1cccc(C(=O)O)c1
 : 0.71	-12	-3.1	1.4	-0.1	x	30	-23	12
- CCCCn1c(N)c(N(CCOC)C(=O)C2CCN(S(=O)(=O)c3ccc(Cl)cc3)CC2)c(=O)[nH]c1=O
 : 0.7	10	4.0	1.0	2.5	i	-8	16	-1
- N#Cc1c(C(F)(F)F)cc(-c2ccccc2)nc1SCCN1CCOCC1
 : 0.67	2	0.6	2.3	-5.7	i	-12	4	16
- O=C(OC(C(=O)NC1CCCCC1)c1ccccn1)c1cccs1 (stereo not drawn)
 : 0.69	x	-0.6	-3.1	x	x	2	x	-13
- COc1ccc(S(N)(=O)=O)cc1C(N)=O
 : 0.7	15	-1.0	-0.8	0.1	i	-9	11	4
- O=C(Cc1ccc([N+](=O)[O-])cc1)N1CCCc2ccccc21
 : 0.69	0	-1.8	1.1	5.8	i	-32	2	-1
- CCN(CC(=O)NCCc1ccc(S(N)(=O)=O)cc1)Cc1nc2cc(OC)c(OC)cc2c(=O)[nH]1
 : 0.71	x	0.4	-1.9	x	x	-9	x	-3
- CCOC(=O)c1cc2c(ccn2-c2ccc(F)cc2)n1CC(=O)N(CC)CC
 : 0.66	-26	-15	-1.4	-0.2	i	7	-22	0
- COc1ccc(CNC(=O)CCn2c(=O)[nH]c3ccccc3c2=O)cc1
 : 0.68	22	1.2	-0.5	3.1	i	1	6	-6
- CC(O)CNc1nc2sc3c(c2c(=O)n1Cc1ccco1)CCCCC3 (stereo not drawn)
 : 0.65	0	6.3	-3.8	2.8	i	38	-10	-9
- COc1cc(NS(=O)(=O)c2ccc(NC(=O)c3cccnc3)cc2)ncn1
 : 0.71	9	4.3	2.2	0.6	i	-11	5	-5
- O=C(C[n+]1ccccc1)N/N=C/c1cccc(Cl)c1Cl
 : x	10	x	0.5	-4.5	i	x	-1	10
- COCCCNC(=S)N/N=C/c1ccc(OC)cc1
 : x	0	x	-3.9	3.7	i	13	-6	1
- CC(=O)N(c1ccccc1)C1CCCC1
 : 0.7	7	2.6	2.3	0.6	i	-8	8	-2
- CCc1ncc(CN2CCCC(C(=O)Nc3ccc(-c4cscn4)cc3)C2)cn1 (stereo not drawn)
 : 0.71	6	-0.9	0.9	1.4	i	-6	0	1
- O=C1CSC(c2cn(-c3ccccc3)nc2-c2ccc3c(c2)OCCO3)N1CCN1CCOCC1 (stereo not drawn)
 : 0.76	x	-7.4	3.9	x	x	-6	x	-14
- Cn1c(=O)n(C)c2cc([N+](=O)[O-])c(N3CCN(C(=O)c4ccc(Cl)cc4)CC3)cc21
 : 0.7	-2	7.9	0.7	7.5	i	1	-8	-4
- Cc1ccccc1NC(=O)c1cnc2ccccn2c1=O
 : 0.72	x	11	1.4	x	x	-1	x	-9
- CC(c1nnc(Sc2nnnn2-c2ccccc2)n1-c1ccc(F)cc1)N(C)C (stereo not drawn)
 : 0.76	x	4.2	-0.6	x	x	0	x	-4
- CCN1CCN(CCCNC(=O)Cn2cc3c(n2)CCCC3)CC1
 : 0.79	13	2.9	0.2	-1.6	i	-8	6	5
- COCCNC(=O)C(c1ccc(F)cc1)N(C(=O)CCC(=O)Nc1ccccn1)c1cccc(C)c1 (stereo not drawn)
 : 0.67	6	0.7	-2.5	-2.1	i	2	-1	-7
- O=C(NC1CCCCC1)c1ccc(-n2cnnn2)cc1
 : 0.71	10	2.6	9.6	3.7	i	x	11	-4
- CCOc1cc(NS(=O)(=O)c2ccc(Cl)cc2)c(OCC)cc1NC(=O)CC(C)C
 : 0.72	x	3.9	0.6	x	x	-46	x	-8
- CCOC(=O)C(C(=O)OCC)C(C)C#CCN1CCCCC1 (stereo not drawn)
 : 0.76	x	-2.4	-2.0	x	x	3	x	-6
- Cc1ccc(S(=O)(=O)c2ccccc2)cc1S(=O)(=O)N1CCOCC1
 : 0.72	x	0.9	0.2	x	x	3	x	2
- O=C(CSc1nncn1-c1ccccc1)N1CCCC1
 : 0.68	10	1.3	-0.1	0.3	i	x	8	2
- COc1cc(-n2c(C)nc3cc(C(=O)N4CCOCC4)ccc32)cc(OC)c1OC
 : 0.8	x	0.1	1.1	x	x	3	x	2
- CCc1nnc(NC(=O)CSC(=S)N2CCOCC2)s1
 : 0.74	10	5.5	-0.6	0.4	i	-7	12	-8
- COc1cccc(NCc2cc3c(C(C)(C)C)nn(-c4ccccc4)c3[nH]c2=O)c1
 : 0.68	x	-0.3	1.5	x	x	-10	x	-23
- COc1cc(NC(=O)CSc2ccc(-c3ccco3)nn2)cc(OC)c1
 : 0.73	-22	0.3	-0.9	-0.4	i	98*	-20	-2
- Cc1ccccc1OCC(=O)NC1CCCCCCC1
 : 0.7	-18	1.4	0.7	0.6	i	x	-13	-2
- CC1(C)CC(NC(=O)c2ccc(-c3ccc([N+](=O)[O-])cc3)o2)CC(C)(C)N1
 : 0.63	0	-5.5	0.6	3.5	i	-12	1	8
- Cc1ccc(C(=O)NC(=S)NNC(=O)COc2ccc([N+](=O)[O-])cc2)cc1
 : 0.64	-12	1.7	1.4	-0.4	i	99*	-13	9
- COc1ccc(OC)c2sc(N3CCc4ccccc4C3)nc12
 : 0.69	-10	1.7	0.8	-3.1	i	x	-9	5
- Cc1cccc(OCC(=O)NCCN2CCOCC2)c1
 : 0.74	x	1.0	1.8	x	x	53	x	-1
- Cc1cc(C)nc(N2CCC(C(=O)NCc3cccc(C(F)(F)F)c3)CC2)n1
 : 0.73	x	4.8	1.2	x	x	2	x	3
- CC(C)[C@H](NC(=O)c1ccccc1)C(=O)NC1=NCCS1
 : 0.68	9	-2.9	-4.6	-0.2	i	-12	10	-8
- C[C@H](CO)N1C[C@H](C)[C@@H](CN(C)S(=O)(=O)c2cccs2)Oc2ccc(NC(=O)c3ccncc3)cc2C1=O
 : 0.81	4&-2	-19	6.7	0.2&-1.8	i	1	-1&-5	-1
- COc1cc(SC)ccc1C(=O)OCc1nc2ccsc2c(=O)[nH]1
 : 0.69	2	0.5	-2.0	-1.9	i	6	1	-11
- CCOC(=O)c1c(CN2CCN(C)CC2)oc2ccc(OC)cc12
 : 0.66	x	2.1	6.5	x	x	-21	x	0

4 compounds picked at random from those above:
Below each compound: Ecoli growth	rRNA inh HTS OD600	UCH37 inh	HNF4A DNA FP	rRNA inh HTS RFP	FGF22 binding	ALR inh	rRNA inh HTS	Beta2AR agonist
- O=C1CSC(c2cn(-c3ccccc3)nc2-c2ccc3c(c2)OCCO3)N1CCN1CCOCC1 (stereo not drawn)
 : 0.76	x	-7.4	3.9	x	x	-6	x	-14
- C[C@H](CO)N1C[C@H](C)[C@@H](CN(C)S(=O)(=O)c2cccs2)Oc2ccc(NC(=O)c3ccncc3)cc2C1=O
 : 0.81	4&-2	-19	6.7	0.2&-1.8	i	1	-1&-5	-1
- O=C(CSc1nncn1-c1ccccc1)N1CCCC1
 : 0.68	10	1.3	-0.1	0.3	i	x	8	2
- Cc1cccc(OCC(=O)NCCN2CCOCC2)c1
 : 0.74	x	1.0	1.8	x	x	53	x	-1

Additional compounds.
Below each compound: Ecoli growth	rRNA inh HTS OD600	UCH37 inh	HNF4A DNA FP	rRNA inh HTS RFP	FGF22 binding	ALR inh	rRNA inh HTS	Beta2AR agonist
- COC(=O)c1ccc(Cl)cc1N(Cc1c(F)cccc1Cl)S(C)(=O)=O
 : 0.7	-12	-0.3	-4.1	-8.4	i	x	-34	-8
- O=C(CSC(=S)N1CCOCC1)Nc1nccs1
 : 0.68	-6	4.8	-1.1	-5.8	i	x	2	-10
- NS(=O)(=O)c1cccc(NS(=O)(=O)c2cccc(C(F)(F)F)c2)c1
 : 0.66	-8	0.1	1.1	-1.4	i	-25	1	-3
- CCN1C(=O)C(NC(C)=O)c2cc(OC)ccc21 (stereo not drawn)
 : 0.75	x	-0.1	-3.3	x	x	14	x	8
- O=C(CSc1ccccc1)Nc1ccc2c(c1)OCO2
 : 0.67	-1	3.8	0.9	-0.8	i	x	4	0
- CCc1nnc(NC(=O)c2cccc(S(=O)(=O)N(C)c3ccccc3)c2)s1
 : 0.63	x	1.8	3.0	x	x	-11	x	4
- Cc1noc(C)c1NC(=O)N(C)C[C@@H]1Oc2c(NC(=O)c3ccncc3)cccc2C(=O)N([C@H](C)CO)C[C@@H]1C
 : 0.79	16&0	3.7	10.0	-4.2&-1.8	i	2	5&1	-1
- CNC(=O)c1c(NC(=O)C2=COCCO2)sc2c1CCC(C)C2 (stereo not drawn)
 : 0.7	5	-49	5.0	0.6	i	-9	3	3
- COc1ccc(NC(=O)C2CC(c3ccccc3Cl)=NO2)cc1 (stereo not drawn)
 : 0.65	-13	4.0	1.8	-1.0	i	0	-10	-5
- CN(Cc1cccs1)C(=O)c1cccc(S(=O)(=O)N2CCCCCC2)c1
 : 0.64	-28	2.5	-2.8	-6.7	i	-3	-7	-4
- CCOc1cc(C=O)ccc1OCC(N)=O
 : 0.66	13	-0.4	-1.4	-2.4	i	1	19	-2
- CC(C)[C@H](Nc1ccc(C(F)(F)F)cc1[N+](=O)[O-])C(=O)O
 : 0.72	3	6.6	1.1	5.0	i	1	5	6
- CCOC(=O)C1=C(N)Oc2cc(C)oc(=O)c2C1c1cccnc1 (stereo not drawn)
 : 0.68	x	5.4	-0.5	x	x	4	x	10
- COc1ccc(CNC(=O)/C=C/[C@H]2O[C@@H](n3ccc(=O)[nH]c3=O)[C@H](O)[C@@H]2O)cc1
 : x	4	x	-3.7	-3.9	i	x	1	x
- CN1CCN(C(=O)c2ccccc2NC(=O)c2cccs2)CC1
 : 0.74	x	-1.5	0.8	x	x	x	x	-4
- NC(N)=Nc1cc2ccccc2c2ccccc12
 : x	9	x	x	4.5	i	36	11	x
- O=C(Cc1ccc(-c2ccccc2)cc1)Nc1ncccc1O
 : 0.66	-29	-1.7	-0.4	11	i	-18	-26	-13
- CC(C)C(C(=O)NCC1CCCO1)N(C(=O)CNS(=O)(=O)c1ccc(F)cc1)C1CCCCC1 (stereo not drawn)
 : 0.68	4	2.6	-5.1	0.7	i	-10	5	-4
- CCc1ccc(/C=N/N2CCN(c3ccccn3)CC2)cc1
 : x	3	x	61*	2.1	i	x	4	1
- O=C(NCc1cccs1)c1cnc(Cl)c(Cl)c1
 : 0.71	1	4.3	-3.7	1.3	i	-1	4	-5
- CN(Cc1ccccc1O)CC1CCCN(CCc2ccc(Cl)cc2)C1 (stereo not drawn)
 : 0.6	-6	2.4	-2.3	6.9	i	9	-6	-6
- O=C(N/N=C/c1ccc([N+](=O)[O-])o1)c1cc2c(ccc3ccccc32)o1
 : x	-13*	x	1.7	5.3*	i	x	-24*	17
- COc1ccc2cc3cc(C(=O)Nc4cc(OC)c(OC)c(OC)c4)oc3nc2c1
 : 0.74	x	-3.5	-1.4	x	x	-12	x	13
- NC(=O)[C@@H]1CCOc2c(I)cc([N+](=O)[O-])cc2C(=O)N[C@@H](CO)C(=O)NCC(=O)N1
 : x	8	3.4	-6.4	7.5	x	-2	11	2
- CCc1nc2c(=O)[nH]cnc2o1
 : x	20	x	-5.9	-3.8	i	x	8	x
- Cc1ccc(C)c(Oc2coc3cc(OC(=O)c4cccs4)ccc3c2=O)c1
 : 0.73	x	-3.9	-1.6	x	x	-8	x	10

These rows are one share of the data (hit frequency here may not be typical).
